Vaccinia pol inh: inhibitors of vaccinia virus processive DNA synthesis (E9 polymerase); in vitro processive DNA synthesis, absorbance read-out; hits give low values; some inactives read as strong as hits; normalized absorbance, % (concentration not given with the values); 0.94% of 46,000 active; AID 493162;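 active = replicate mean up to 90% and picked by the depositor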;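 note: 100% = median of the test wells of a plate; 100 nL library stock went into each well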
* marks the source's active call; other numbers are inactive results; & = joins results of further samples. Some of the compounds tested (hit frequency here may not be typical).

molecule	Vaccinia pol inh
COC(=O)C1=CN(CCOC23CC4CC(CC(C4)C2)C3)C=C(C(=O)OC)C1c1cccc(F)c1	101
COC(=O)CC1=C(C(=O)OC)C(c2cccnc2)C(C#N)=C(N)O1 (stereo unspecified)	105
CN(Cc1ccccc1)C(=O)CCc1ccccc1	102
COc1cc2c(C(=O)N3CCCCC3C)cn(C)c(=O)c2cc1OC (stereo unspecified)	103
CC1(C)OC(=O)C(=Cc2cccn2-c2ccc(C(F)(F)F)cc2)C(=O)O1	101
Cc1cc(-c2nn(C)c(=O)c3ccccc23)cc(C)c1OC(=O)Nc1ccc(Cl)cc1	111
CCN(CC)CCNc1c2c(c(C#N)c3nc4ccccc4n13)CCCC2	98
CCOC(=O)c1cc(S(=O)(=O)N2CCCC2)cn1C	102
O=C(OCCCN1C(=O)c2ccccc2C1=O)c1ccc(Cl)cc1Cl	100
O=P(O)(CCc1ccccn1)CN1CCOCC1	100
COc1cc2c(C(=O)O)c(C)n(C)c2cc1Br	103
O=C(CSc1ccc(-c2cccnc2)nn1)c1ccc(F)cc1	96
O=C(O)C(CSc1ncccn1)CSc1ncccn1	100
FC(F)(F)c1ccc(N2CCN(Cc3ccccc3)CC2)nc1	100
COC(=O)c1[nH]c2ccccc2c1C(Nc1ccc(C(=O)O)cc1)c1ccccc1 (stereo unspecified)	76
O=c1c(-c2ccccc2)coc2cc(OCc3ccccc3F)ccc12	97
CCNC(=O)c1cc(S(=O)(=O)N2CCCCC2)ccc1C	75
O=S(=O)(Cc1ccccc1)/C1=C(\N2CCOCC2)CCCCCC1	91
O=S(=O)(c1ccc(F)cc1)c1ccc(F)cc1	87
CC1CC1c1ccc(CCC(=O)Nc2ncc(Cc3cccc(Cl)c3)s2)o1 (stereo unspecified)	100
CS(=O)(=O)c1ccc(COC(=O)c2ccccc2O)cc1	93
Oc1c(C(c2ccc(Cl)cc2)N2CCOCC2)cc(Cl)c2cccnc12 (stereo unspecified)	100
CC(Oc1ccccc1)C(=O)NC1CCCC1 (stereo unspecified)	96
CCCn1c2ccc(CC)cc2c2nc3ccccc3nc21	102
Cc1ccc(C(=O)OCC(=O)c2cccc(Cl)c2)s1	96
O=C(O)Cc1cn(-c2ccccc2)nc1-c1cccs1	102
Cc1[nH][nH]c(=O)c1C1=NCCCCC1	100
CCOC(=O)c1cnc(N2CCOCC2)nc1N	101
CC(=O)N(Cc1ccccc1)c1ccccn1	100
CCc1cccc(NC(=S)N(C2CCCCC2)C(C)c2cccs2)c1 (stereo unspecified)	102
O=C(COC(=O)c1ccc(Br)o1)NCc1ccccc1	102
COc1cccc(NC(=O)Cn2c3ccccc3c3nc(=O)cc(C)n32)c1	91
CN(C)CC(O)C12CC3CC(CC(C3)C1)C2 (stereo unspecified)	90
COC(=O)C1C(=O)C=C(Nc2cc(OC)ccc2OC)CC1c1ccc(OC)cc1 (stereo unspecified)	100
COC(=O)c1sc(=S)n(C)c1C	100
O=C(c1ccccc1)N1C(=S)C(c2ccccc2)=NC12CCCC2	96
COC(=O)CC1=C(C(=O)OC)C(c2ccccc2)NC(=O)N1 (stereo unspecified)	108
O=C(CN1CCN(c2ccccc2)CC1)N1CCc2ccccc21	121
O=C(C1=C(c2ccccc2)C(=O)c2ccccc2C1=O)c1ccccc1	98
CN1CCCN(C(=O)c2ccccc2OCc2ccccc2)CC1	99
CC(C)CC(=O)OCc1ccc(Cl)c(Cl)c1	96
COc1cc2[nH]c(=O)n(CCCC(=O)N3CCN(c4cccc(Cl)c4)CC3)c(=O)c2cc1OC	88
O=C(CS(=O)(=O)Cc1ccccc1)Nc1nccs1	102
Clc1ccc(/C=N/c2ccccn2)cc1	98
O=C(CCCn1sc2ccccc2c1=O)NC1CCCc2ccccc21 (stereo unspecified)	102
CC(C)c1nc2ccccc2n1CC(=O)N(c1ccccc1)C(C)C	92
O=C(NCc1ccccc1)C1CCCN(S(=O)(=O)c2ccc3nc(-c4ccccc4)[nH]c3c2)C1 (stereo unspecified)	97
CCc1cc(C(=O)c2ccc(OC)cc2)c(NC(=O)c2ccc(C(F)(F)F)cc2)s1	110

Six compounds drawn at random from the list so far:
molecule	Vaccinia pol inh
CC(C)CC(=O)OCc1ccc(Cl)c(Cl)c1	96
O=C(CCCn1sc2ccccc2c1=O)NC1CCCc2ccccc21 (stereo unspecified)	102
CC(C)c1nc2ccccc2n1CC(=O)N(c1ccccc1)C(C)C	92
O=C(CS(=O)(=O)Cc1ccccc1)Nc1nccs1	102
O=C(NCc1ccccc1)C1CCCN(S(=O)(=O)c2ccc3nc(-c4ccccc4)[nH]c3c2)C1 (stereo unspecified)	97
COc1cc2[nH]c(=O)n(CCCC(=O)N3CCN(c4cccc(Cl)c4)CC3)c(=O)c2cc1OC	88

Continued:
molecule	Vaccinia pol inh
O=C(c1ccccc1)C1CN2CCC1CC2 (stereo unspecified)	101
CN(C(=O)CC(=O)N(C)C1CCCCC1)C1CCCCC1	85
COC(=O)C1CC(c2ccc(Cl)cc2)=NO1 (stereo unspecified)	107
CCCCN(C)C(=O)c1ccc2c(c1)N(CC)C(=O)c1ccccc1S2=O (stereo unspecified)	97
CN1C(C(=O)NC2CCCC2)=CC(c2cccs2)=NS1(=O)=O	97
CC(=O)N1CCN(CC(O)COc2ccc(C)cc2)CC1 (stereo unspecified)	100
Cc1cc(C)cc(Oc2ccccc2/C=N\O)c1	102
CCOC(=O)c1[nH]c2ccccc2c1N	98
Cc1cccc(C(=O)NN(c2ccccc2)c2ccccc2)c1	96
COc1ccc(-n2cc(C(=O)N(Cc3ccco3)C3CCCC3)c3ccccc3c2=O)cc1	80
CN(C)Cc1cc(C=NC2CCCCC2)c(S)s1	101
COc1cc(SC)ccc1C(=O)NC(C)C	98
O=C1CS/C(=C/c2nc3ccccc3[nH]2)N1	90
Cc1cc(-c2ccccc2)nn1C(CC(=O)O)C(=O)O (stereo unspecified)	100
CC1CCc2ccccc2N1C(N)=Nc1ccccc1 (stereo unspecified)	101
Cn1nc(C(=O)N2CCOCC2)cc1C(=O)N1CCOCC1	101
CN(C)/C=C1/C=C(c2ccccc2)OC1=S	97
O=C(CBr)c1ccc2ccccc2c1	103
Cc1noc(/C=C/c2cccs2)c1S(=O)(=O)N1CCCC(C(=O)NCC2CCCO2)C1 (stereo unspecified)	100
O=C(CNC(=O)C(c1ccccc1)c1ccccc1)NC1CCCCC1	100
CCOC(=O)Cc1c(SC)c2ccccc2n1C	98
Clc1ccc(-c2n[nH]c3c2CCCC3)cc1	123
Cc1ccc(OC(=O)CCC(=O)Nc2cccc(C#N)c2)cc1	101
O=C(Nc1ccccc1C(=O)O)c1ccc(CN2CCOCC2)cc1	101
CCOC(=O)N1CCN(C(=O)CCn2nc(-c3ccc(Cl)cc3)ccc2=O)CC1	102
CC1(C)CC(NC2CCCCC2)CC(C)(C)N1	100
CN(Cc1ccccc1)C(=O)CSc1ncnc2ccccc12	110
NNc1ccc2c(C(F)(F)F)cc(C(F)(F)F)nc2n1	98
Cc1cc(C(=O)OCC(=O)NCc2ccccc2)c(C)o1	102
CN(Cc1ccccc1)C(=O)COc1ccccc1	99
NC(N)=NC(N)=Nc1ccccc1	100&102
COc1cc(-c2c(C#N)c(SCC#N)nc(N)c2C(=O)OC(C)C)cc(OC)c1OC	99

10 compounds from above, arranged by length of the SMILES, falling:
molecule	Vaccinia pol inh
CCOC(=O)N1CCN(C(=O)CCn2nc(-c3ccc(Cl)cc3)ccc2=O)CC1	102
O=C(CNC(=O)C(c1ccccc1)c1ccccc1)NC1CCCCC1	100
O=C(Nc1ccccc1C(=O)O)c1ccc(CN2CCOCC2)cc1	101
Cc1ccc(OC(=O)CCC(=O)Nc2cccc(C#N)c2)cc1	101
NNc1ccc2c(C(F)(F)F)cc(C(F)(F)F)nc2n1	98
Cc1cc(C(=O)OCC(=O)NCc2ccccc2)c(C)o1	102
CN(Cc1ccccc1)C(=O)CSc1ncnc2ccccc12	110
CC1(C)CC(NC2CCCCC2)CC(C)(C)N1	100
CCOC(=O)Cc1c(SC)c2ccccc2n1C	98
NC(N)=NC(N)=Nc1ccccc1	100&102

Other records:
molecule	Vaccinia pol inh
Cc1ccc(NC(=S)N2CCCC(c3ccccc3)=N2)cc1	98
COc1ccc(NCCC(=O)O)cc1	101
COc1ccc(CCN2C(=S)N(c3cccc(C(F)(F)F)c3)C(=O)C2CC(N)=O)cc1OC (stereo unspecified)	100
Cn1cc(S(=O)(=O)c2ccc(Cl)cc2)c(=O)c2cc(F)ccc21	104
CC1=Nc2cc(C(=O)O)ccc2Sc2ccc(Br)cc21	95
CCc1cc2c(=O)c(Oc3ccccc3F)c(C(F)(F)F)oc2c(CN(C)C)c1O	93
COc1ccc(C(=O)Nc2nonc2NC(=O)c2ccc(OC)cc2)cc1	107
NC(=O)Cn1c(=O)c2ccccc2n(CC(N)=O)c1=O	102
Cc1cc(OC(=O)N(C)C)nc(-c2ccc(Cl)cc2)n1	99
O=c1c2cc(NC(=S)Nc3cccc(C(F)(F)F)c3)ccc2nc2n1CCCCC2	96
CC(=O)N(C)c1ccc(NC(=O)c2sc3ccccc3c2Cl)cc1	96
N#CC(=C1SCCCCS1)S(=O)(=O)c1ccc(Cl)cc1	105
CC(NC(=O)COc1ncnc2ccccc12)C1CC2CCC1C2 (stereo unspecified)	101
Cc1ccc(S(=O)(=O)NC2=NCCC2)cc1	103
CCCc1cc(=O)[nH]c(/N=C(\N)Nc2cccc(C(F)(F)F)c2)n1	96
CC(C)NC(=O)CCCc1nc(-c2ccccc2)no1	105
CC1CCN(c2nn3c(N)c(/C=C4\C=Nc5ccccc54)c(=O)nc3s2)CC1	101
O=C(COC(=O)c1ccccc1F)c1ccc(-n2nncc2-c2ccc(F)cc2)cc1	80
Cc1ccc(S(=O)(=O)NC(=O)NC2CCCc3ccccc32)cc1 (stereo unspecified)	90
CC(C)(C)N1CC(O)C1	94
O=c1cc(Nc2ccc(N3CCCCC3)cc2)[nH]c(=O)[nH]1	101
CCCCCC#CCC#CCC#CCC#CCCCC(=O)O	101
Cc1[nH]n(-c2nc3ccccc3s2)c(=O)c1C1OC(=O)c2ccccc21 (stereo unspecified)	92
c1cnc2nc(CSc3ncn[nH]3)cn2c1	101
Clc1ccc(-c2nc(-c3ccccn3)no2)c(Cl)c1	99
Clc1ccc(-c2nn[nH]n2)cc1	98
NS(=O)(=O)c1ccc(CCNC(=O)c2cccn3c(=O)c4cc5ccccc5cc4nc23)cc1	98
Cc1[nH]c2ccccc2c1/C=N/n1cnc2sc3c(c2c1=O)CCCC3	100
Cc1ccc(S(=O)(=O)N2C(=O)CCC2C(=O)NCc2nc(-c3ccccc3)no2)cc1 (stereo unspecified)	98
CCc1nc(=O)c(-c2ccccc2)c(C)n1-c1ccccc1	106
CCN(C(=O)COc1ncnc2ccccc12)c1ccccc1	90
CCCCn1c(CCNC(=O)c2ccccc2)nc2ccccc21	101
CC(C)Sc1nnc(OC(=O)N(C)C)n1-c1cccc(C(F)(F)F)c1	94
O=C(CSC1=NCCS1)Nc1cc(C(F)(F)F)ccc1Cl	99
CC1=CC(C)(C)c2ccccc2N1Cc1ccccc1	104
CSc1nc2nc(C)c(Cc3cccc(F)c3)c(C)n2n1	92
c1ccc2[nH]c(CSCCC3CCCCC3)nc2c1	103
O=C(CSc1nc2c(c(=O)n1-c1ccccc1)SCC2)N1CCCc2ccccc21	105
CC(C)N(Cc1ccc(N(C)C)cc1)S(=O)(=O)c1cccc(C(F)(F)F)c1	95
CCCn1c(=N)c(C(=O)NC)cc2c(=O)n3cc(C)ccc3nc21	100
CCOC(=O)c1c(NC(=O)CCN2CCC(C)CC2)sc2c1CCC2	98
O=C1CCCCC1C(=O)c1cccc(C(F)(F)F)c1 (stereo unspecified)	106
Cc1cc(OC(C)C(=O)Nc2sc3c(c2C(N)=O)CCCCCC3)ccc1Cl (stereo unspecified)	101
CC1(O)CC(c2ccccc2)SC(c2ccccc2)C1 (stereo unspecified)	92
Cc1cc(C(=O)NC2CCCC2)on1	99
Cc1cc(C)c2c(-n3cccc3)c(C(=O)N3CCC(C)CC3)sc2n1	102
CCCN(c1ccc(OCC)cc1)c1ncnc2nc[nH]c12	101
O=C(O)COCC(=O)Nc1nnc(C2CC2)s1	96
COc1cc2nc(SCC(=O)N(C)C3CCCCC3)n3nc(C)nc3c2cc1OC	105
NC(=O)Oc1cccc2ccccc12	82
O=C(NC(=O)c1ccc(F)c(Cl)c1)Nc1nnc(C(F)(F)F)s1	80
Cn1cc(S(=O)(=O)N2CCCC2)cc1C(=O)N1CCC(Cc2ccccc2)CC1	102
O=C(NCC1COc2ccccc2O1)c1ccc(NC(=O)C2CCCO2)cc1 (stereo unspecified)	104
COc1ccc(-c2nc3ccccc3n2C(=O)c2ccccc2C(=O)O)cc1	98
CCCC1CCC(c2ccc(OC(=O)c3ccco3)cc2)CC1 (stereo unspecified)	100
O=C(c1cnc(-c2ccccc2)nc1-c1ccccc1)N1CCOCC1	76

(listing goes on)
molecule	Vaccinia pol inh
O=C(O)CC(NC(=O)Nc1ccccc1)c1ccsc1 (stereo unspecified)	110
COc1ccc(C)cc1N=Cc1ccc(C)s1	97
COc1ccccc1NC(=O)c1ccccc1NS(=O)(=O)N1CCCC1	100
CCc1ccc(Nc2nc3cc(OC)ccc3cc2C#N)cc1	95
CCCn1c(CCCO)nc2ccccc21	100
COC(=O)c1ccc(S(=O)(=O)Nc2ccc(N3CCOCC3)cc2)n1C	108
O=C(Nc1ccc(-n2nncc2-c2ccccc2)cc1)c1ccc(F)cc1	99
COC(=O)c1sccc1N1CC(C)(C)C1=O	100

Screens: PubChem BioAssay, ICCB-Longwood Screening Facility, Harvard Medical School
